Tgondii IFNg – blocks Toxoplasma gondii growth in the presence of IFN-gamma. hit rate 3.8% among 69,000. Toxoplasma gondii growth in IFN-gamma-treated host cells; active compounds read low; reference of the scale not given here. activity change, negative = inhibition, %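 (about 20 µM by stock and volumes)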;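 active = below -70%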;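 also: host cells are HeLa cells infected with Toxoplasma gondii; parasite growth read as luciferase light; one replicate is shown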
* = called active by the depositor; i = inactive; & = joins results of further samples. Not all compounds are listed; the hit share may differ from the screen's.

SMILES	Tgondii IFNg
CCc1ccc(S(=O)(=O)N2CCc3nc(-c4ccc(C)cc4)sc3C2)cc1	24
O=C(c1ccsc1)N1CCCC2(C1)Nc1cccnc1NC2=NCc1ccccc1 (stereo not drawn)	-50
Cc1cccc(CN2CCN(Cc3cnc(N4CCCC4)nc3)CC2=O)c1	-9
Clc1ccc(Cc2nc(-c3ccc(-n4cccc4)cc3)no2)cc1	21
O=C(C[C@@H]1CC[C@H]2[C@@H](COC[C@H](O)CN2S(=O)(=O)c2cccc(F)c2)O1)NCc1ccncn1	29
NC(=O)C1(N2CCCCC2)CCN(Cc2cc3n(n2)CCNC3)CC1	6
COCC(=O)Nc1ccc2c(c1)C(=O)N(C)[C@H]1CC[C@@H](CC(=O)NCCCN(C)C)O[C@H]1CO2	6
C/C=C/c1ccccc1[C@H]1[C@@H](C#N)N(C(C)=O)[C@@H]1CO	-13
CCCCN(C1CCN(C(C)=O)CC1)S(=O)(=O)c1ccc2[nH]c(=O)ccc2c1	87
CC(CCN(C)Cc1ncc[nH]1)N1CCCC1 (stereo not drawn)	6
Cc1ccc2[nH]nc(C(=O)Nc3nnc(CCOc4ccc(Cl)cc4)s3)c2c1	-20
COc1ccc(CCN2C(=O)N(C)C(=O)C23CCN(Cc2ccc(N4CCCC4)cc2)CC3)cc1	10
O=C(C1CCOCC1)N1[C@H](CO)[C@@H](c2ccccc2)C12CN(Cc1cccc(Cl)c1)C2	-29
COC(=O)c1ccccc1NC(=O)N1CCN(Cc2nc(-c3ccc(C)cc3)oc2C)CC1	0
CCSc1nc(CC(=O)N(Cc2nccn2C)C2CC2)cs1	15
COc1ccc(CN2CCC(C(=O)NC(C)c3ccc4c(c3)OCCO4)CC2)cc1 (stereo not drawn)	0
O=C(CCC(=O)N(CC(=O)NC1CCCCC1)C1CCCC1)Nc1nccs1	-10
CC(C)NC(=O)C1CCC2(CCN(c3ncccn3)CC2)CO1 (stereo not drawn)	-68
C1CN(Cc2nc(C34CC5CC(CC(C5)C3)C4)no2)CCO1	-39
COc1ccc(S(=O)(=O)N(C)C[C@@H]2Oc3c(cccc3N(C)C)C(=O)N([C@@H](C)CO)C[C@@H]2C)cc1	46
COC(=O)[C@@H]1C[C@@H](N(C)C)CN1C(=O)c1ccc(C(C)C)n(C)c1=O	-5
O=C(Nc1ccc2c(c1)OCCO2)c1c(O)c2cccnc2[nH]c1=O	i
CN1CCN(C[C@H]2OC[C@H]3CCN(Cc4ccco4)C[C@H]32)CC1	-22
COc1cc(O)c2c(c1)C(=O)c1cc(C)cc(O)c1C2=O	7&33
Cc1c(CN(C)Cc2nc(C(C)C)cs2)cnn1C	-4
CC(c1ccc(-c2cccc(-n3cnnc3)c2)cc1)N1CCOCC1 (stereo not drawn)	-9
COc1ccc(S(N)(=O)=O)cc1C(N)=O	19
O=C(C[C@H]1CC[C@@H]2[C@H](COC[C@H](O)CN2C(=O)c2cnccn2)O1)N1CCN(c2ccccc2)CC1	-7
O=C(CC(Sc1ccc(Cl)cc1)c1ccc(Cl)cc1)c1ccccc1 (stereo not drawn)	-112*
CC1Oc2ccc(NCc3ccc(OCCO)cc3)cc2N(C)C1=O (stereo not drawn)	121

An excerpt of these results, as a markdown table:
| molecule | Tgondii IFNg |
| --- | --- |
| COc1ccc(CN2CCC(C(=O)NC(C)c3ccc4c(c3)OCCO4)CC2)cc1 (stereo not drawn) | 0 |
| CN1CCN(C[C@H]2OC[C@H]3CCN(Cc4ccco4)C[C@H]32)CC1 | -22 |
| O=C(CCC(=O)N(CC(=O)NC1CCCCC1)C1CCCC1)Nc1nccs1 | -10 |

Another view of some results above:
| smiles | Tgondii IFNg |
| --- | --- |
| CN1CCN(C[C@H]2OC[C@H]3CCN(Cc4ccco4)C[C@H]32)CC1 | -22 |
| COc1cc(O)c2c(c1)C(=O)c1cc(C)cc(O)c1C2=O | 7&33 |
| Cc1c(CN(C)Cc2nc(C(C)C)cs2)cnn1C | -4 |
| CC(c1ccc(-c2cccc(-n3cnnc3)c2)cc1)N1CCOCC1 (stereo not drawn) | -9 |

(list continues)
SMILES	Tgondii IFNg
Cc1cc(C)cc(NC(=O)Cn2ncc3c(N4CCC(C)CC4)ncnc32)c1	99
COc1ccc2c3c(n(C)c2c1)[C@H](CO)NCC31CCN(Cc2cc(F)ccc2F)CC1	-54
Cc1ccc(NC(=O)CC(=O)N(C)C(C)c2nccs2)cc1 (stereo not drawn)	1
O=C(c1cn[nH]n1)N1CCn2cccc2C1c1ccccn1 (stereo not drawn)	-3
Cc1cc(C(=O)N2CC[C@@H]3CN(c4ncccn4)CCO[C@H]3C2)c(C)o1	3
O=c1oc2cccnc2n1CCS(=O)(=O)c1ccc(F)cc1	33
Cc1nc(C)c(C(=O)NC(C)Cn2cncn2)s1 (stereo not drawn)	13
CN1C[C@]23CN(C(=O)COc4ccccc4)C[C@@H](C[C@H]2S1(=O)=O)O3	-47
CCOc1ccc(C2c3[nH]c4ccccc4c3CCN2C(=O)C2CC2)cc1 (stereo not drawn)	-35
Cc1n[nH]c(C)c1CC(=O)N1CC[C@@](C)(O)[C@@H](Cc2ccccc2)C1	-4
Cc1nc(CN2CCc3ncnc(-c4ccc(F)cc4)c3CC2)cs1	-13
CC(C)c1sc(Cl)nc1C(=O)N1C[C@H]2[C@H](N)c3ccccc3[C@H]2C1	-48
O=S1(=O)CCC(NS(=O)(=O)c2ccc(F)cc2)C1 (stereo not drawn)	-27
C[C@H](CO)N1C[C@H](C)[C@@H](CN(C)C(=O)NC2CCCCC2)OCc2cn(nn2)CCCC1=O	277
O=C1C[C@@H](c2ccccc2)C(=O)N[C@@H](c2ccccc2)C/C=C\C[C@H](c2ccccc2)N1	-41
COc1ccccc1-c1cnc2c(c1)C(=O)N([C@@H](C)CO)C[C@H](C)[C@H](CN(C)C(=O)CC1CC1)O2	128
Cc1ccc(NC(=O)CN2C(=O)CCc3cc(Br)ccc32)cc1C	138
Cc1c(F)cccc1CN1C[C@@H](C(=O)NCC2CCOCC2)[C@@H]2OCC[C@H]21	-9
CO[C@@H]1CN(C)C(=O)c2ccc(NC(=O)Nc3ccc(F)cc3)cc2OC[C@@H](C)N(C(=O)c2ccc(F)cc2)C[C@H]1C	466
Cc1cncc(C(=O)N2CCC3OCCCC3(COCC3CC3)C2)c1 (stereo not drawn)	53
S=c1sc2ccccc2n1CSc1nc2ccccc2[nH]1	237
COc1cc2[nH]c3c(=O)n(CC(=O)N4CCN(c5ncccn5)CC4)cnc3c2cc1OC	25
Fc1cnc(N2CCC3(CCCN(c4nncs4)C3)C2)nc1 (stereo not drawn)	-67
NC(=O)Cc1cccc(C(=O)c2ccccc2)c1N	19&42
O=S(=O)(c1ccc(Cl)c(Cl)c1)N1CCC2(CC1)Nc1cc(F)ccc1-n1cccc12	14
COC(=O)C[C@H]1CC[C@@H]2[C@H](COC[C@H](O)CN2S(=O)(=O)c2cn(C)cn2)O1	41
Cc1c(C(=O)N2CCCCC2)oc2ccc3c(c12)C(=O)CC1(CCCCCC1)O3	-112*
COc1ccc(-c2noc(CCc3ccccc3)n2)cc1	114
COc1c(C)cnc(CN(C)C(=O)c2cc(CC(C)C)no2)c1C	-9
CN1C(=O)[C@@H]2CN(S(C)(=O)=O)C[C@H]2C12CCN(C(=O)NCCc1ccccc1)CC2	9

Molecules above that have an aryl thioether with sulfur outside any ring:
SMILES	Tgondii IFNg
CCSc1nc(CC(=O)N(Cc2nccn2C)C2CC2)cs1	15
O=C(CC(Sc1ccc(Cl)cc1)c1ccc(Cl)cc1)c1ccccc1 (stereo not drawn)	-112*
S=c1sc2ccccc2n1CSc1nc2ccccc2[nH]1	237

Further results.
SMILES	Tgondii IFNg
O=C(c1cnccn1)N1CC(=O)N2[C@H](C1)[C@@H](c1ccc(-c3cccc(F)c3)cc1)[C@@H]2CO	-50
O=S(=O)(c1ccccc1)N1[C@H](CO)[C@H]2c3ccccc3NC[C@H]21	-2
CO[C@@H]1CC[C@@H]2CCN(C)C(=O)[C@@H](C)CN(C)C(=O)c3cc(C#N)ccc3OC[C@H]1O2	-14
N#Cc1c(NC(=S)NC(=O)c2ccc(Br)cc2)sc2c1CCCCC2	208
COCC(=O)N1CCOCC1c1nccc(NC(C)C)n1 (stereo not drawn)	i
O=S(=O)(NCCc1csc(-c2ccc(F)cc2)n1)c1ccc(Cl)cc1	-67
Cc1ccsc1-c1nccn1CCc1nc(-c2cccnc2)n[nH]1	-2
CCCc1sc(Nc2ccc(C(=O)OC)cc2)nc1-c1ccccc1	91
Cc1ccc(CN2C[C@H]3[C@H](C(=O)N4CCOCC4)CCS(=O)(=O)[C@H]3C2)cc1	-20
CO[C@H]1CCN(c2ncc(F)cn2)C[C@@H]1Cc1ccccc1	-59
CCn1cc(S(=O)(=O)N2CCC(Cc3cccc(C(=O)O)c3)C2)cn1 (stereo not drawn)	-1
COc1cc(NC(=O)Nc2ccc(-c3nc(-c4ccccc4)co3)cc2)cc(OC)c1	73
O=C(c1cc2cccnc2n(Cc2ccccc2F)c1=O)N1CCN(c2ccc(F)cc2)CC1	-83*
CC(=O)Nc1cccc(Oc2ccc(C3CCCCN3)cn2)c1 (stereo not drawn)	6
Cc1nc(C(=O)N(C)Cc2cc(-c3cccs3)n[nH]2)cs1	15
Cc1cc(Nc2ccc(S(N)(=O)=O)cc2)c2ccc(C(F)(F)F)cc2n1	-1
C[C@@H]1CN([C@H](C)CO)C(=O)c2cc(NC(=O)Nc3cccc4ccccc34)ccc2O[C@@H](C)CCCCO[C@H]1CN(C)S(=O)(=O)c1cn(C)cn1	i
O=C(c1ccc2onc(-c3csc(-c4ccccc4)n3)c2c1)C1CC1	-8
CC(C)NC(=O)N1[C@H](CO)[C@@H]2c3ccccc3NC[C@@H]21	-4
c1cnc(SCc2cccnc2)nc1	15
COCc1cc(CNC(=O)c2cc(C)nc3cc(F)ccc23)[nH]n1	-10
CCOC(=O)C(NC(=S)SC)C(=O)OCC	116
Cc1nn(S(=O)(=O)c2ccc(Cl)cc2)c(C)c1Sc1ncccn1	23
Cc1ccc(C(=O)N2CCC(N(C)C)CC2C(=O)O)cc1F (stereo not drawn)	36
Clc1ccc(SC/C=C/CSc2ccc(Cl)cc2)cc1	-32
COC(=O)c1cc(OC)c(OC)cc1NC(=O)Nc1ccc(OC)cc1OC	8
O=C(c1ccsc1)N1CCC2(CC1)Nc1cccnc1NC2=NC1CCCC1	66
CC(=O)NCc1csc(C2CCN(C(=O)CCc3ccccc3)CC2)n1	33
CC12CC3CC(C)(C1)CC(C(=O)N1CC[C@H](O)C1)(C3)C2	-51
CC(NC(=O)c1cnn2c1CCCC2)c1cn2ccsc2n1 (stereo not drawn)	-8
CCCc1cc(CNC(=O)c2cc(-c3cccs3)nn2C)on1	-15
Cc1noc(C)c1S(=O)(=O)Nc1ccc2c(c1)C(=O)N([C@@H](C)CO)C[C@H](C)[C@@H](CN(C)C(=O)NC1CCCCC1)O2	12
O=C(c1cnccn1)N1CC(=O)N2[C@H](CO)[C@@H](c3ccc(/C=C/c4ccccc4)cc3)[C@@H]2C1	-40
CNC[C@@H]1Oc2cc(C#Cc3ccccc3OC)ccc2S(=O)(=O)N([C@H](C)CO)C[C@H]1C	-47
CO[C@H]1CN(C)C(=O)c2ccc(NC(=O)c3cc(C)on3)cc2OC[C@@H](C)NC[C@H]1C	59
O=C(Nc1cccnc1-c1ccc2c(c1)OCO2)C1CC1	9
CCN1c2ccc(F)cc2C(=O)NC12CCN(C(=O)Cc1ccc(OC)cc1)CC2	12
Cc1cccc(-c2nc(C)c(CCNC(=O)c3ccccc3Br)s2)c1	i
COc1ccc2c3c(n(C)c2c1)[C@H](CO)N(S(=O)(=O)c1cn(C)cn1)CC31CCN(C)CC1	91
COc1ccc(-c2cc(=O)c3c(O)c(OC)c(O)cc3o2)cc1OC	74
CC(C(=O)Nc1ccccc1C(=O)N1CCCC1)n1nnc2ccccc21 (stereo not drawn)	-4
COc1ccc(S(=O)(=O)Nc2cncc(C(=O)Nc3cccc(F)c3)c2)cc1OC	32
O=C(CN1C(=O)COc2ccccc21)N1CCC2(CC1)Nc1ccccc1-n1cccc12	17
Cc1cc(C)nc(N2CCCN(C(=O)Cc3cccs3)CC2)n1	-7
O=C(NCc1ccc(-n2cccc2)cc1)c1ccc(Br)o1	-12
Cc1cc(C)n2nc(C(=O)NCCOC(C)C)nc2n1	14
CCn1c(=O)c(-c2nc(-c3ccc(C)cc3)no2)c(O)c2ccccc21	-46
Cc1[nH]c2ccccc2c1C(=O)CSc1nc2ccccc2o1	-39
CN(C)CC(c1ccc(O)cc1)C1(O)CCCCC1 (stereo not drawn)	11
CN(Cc1cccs1)c1nc(C(C)(C)C)nc2c1cnn2C	-53
CCOC(=O)C1=NN(c2ccc(C)cc2)CC1C(=O)OC (stereo not drawn)	-4
CC(C)NC(=O)N1CCC2(C1)c1ccccc1S(=O)(=O)N2CC1CC1 (stereo not drawn)	-10
Cc1nnc(-c2cccc(-c3ccc4c(c3)OCCO4)c2)o1	57
Cc1ccc(S(=O)(=O)C2(C(=O)O)CCCC2)cc1C	-1
N#Cc1cccc(-c2ccc([C@H]3[C@@H](CO)N[C@@H]3CNC(=O)C3CCC3)cc2)c1	-30
O=C(NCCN1CCCCCC1)c1nc(-c2ccc(Cl)cc2)n2c1CCCCC2	-56
C[C@@H]1CC(=O)N[C@@H](c2ccccc2)C/C=C\C[C@H](c2ccc3c(c2)OCO3)NC1=O	-3
CCN1c2ccc(C)cc2C(=O)NC12CCN(C(=O)c1cccc(C)c1)CC2	-44
COC(=O)c1cc(C2CC2)nc2c1c(=O)n(Cc1nc(-c3ccc(OC)cc3)oc1C)c(=O)n2C	8
CCc1cnc(N2Cc3[nH]nc(C(=O)N(C)C)c3C2)nc1	57

Remaining list, next part.
SMILES	Tgondii IFNg
CC(C)NC(=O)N1[C@H](CO)[C@@H](c2ccccc2)C12CN(C(=O)Cc1cccnc1)C2	31
COCCN1CCCn2c(nc(CNS(C)(=O)=O)cc2=O)C1	0
COCCn1ccnc1-c1[nH]cnc1-c1ccccc1	4
CO[C@@H]1CN(C)C(=O)c2cc(NC(=O)CN(C)C)ccc2OC[C@@H](C)N(Cc2ccccc2F)C[C@H]1C	i
